Beta cell apopt: blocks beta cell apoptosis. protection from apoptosis, % (test concentration not listed). INS-1E cytokine-induced death, ATP luminescence, 48 h; percent of positive-control rescue, neutral wells zero. 300,000 tested, 0.8% active;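 active = all replicates at 75% or more, or half of them and the mean; inconclusive = half reach 75% but not the mean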;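 note: 0% = cytokine-treated negative control wells and 100% = positive control rescue; higher means more ATP so stronger rescue from cytokine killing; wells of about 40 µL received 100 nL stock; the first replicate is given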
ALR H2O2 inh: human ALR oxidase inhibition via reduced H2O2; P55789; purified ALR, DTT oxidation, H2O2 HRP-luminol luminescence; inhibition, % (concentration not given with the values); 290,000 tested, 3.8% active; AID 485317;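 active = mean and each replicate at 75% or more; inconclusive = only one of the two met; inactive = neither met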;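 note: stock transfer was 7.5 nL into about 7.5 µL; 0% = neutral wells and 100% = wells with inactivated enzyme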
Target sequence (P55789 whole entry, looked up): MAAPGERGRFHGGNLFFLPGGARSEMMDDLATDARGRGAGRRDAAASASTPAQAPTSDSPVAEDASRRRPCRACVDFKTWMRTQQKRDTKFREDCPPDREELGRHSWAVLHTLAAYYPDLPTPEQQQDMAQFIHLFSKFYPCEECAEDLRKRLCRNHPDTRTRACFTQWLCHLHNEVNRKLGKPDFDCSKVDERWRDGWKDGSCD
RanGTP-Imp inh: disruptors of Ran-importin-beta complex formation – biochemical, FRET, CFP-Ran, YFP-importin-beta, homogeneous, primary screen. cell-free CFP-Ran/YFP-importin-beta FRET ratio. inhibition, % (test concentration not listed). 300,000 tested, 1.1% active. AID 2216;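 active = most replicates above 15%; inconclusive = exactly half above 15%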;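 note: 0% = DMSO wells and 100% = Ran loaded with GDP instead of GTP; wells of about 40 µL received 100 nL stock; the first replicate is given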
Calb FLC: C. albicans growth modulation with fluconazole; 300,000 tested, 0.57% active; growth inhibition, % (concentration not given with the values); C. albicans CaCi-2 (fluconazole-resistant clinical isolate) + fluconazole, Alamar Blue growth, 48 h; AID 1979;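 active = most replicates above 75%; inconclusive = exactly half above 75%; inactive = most below 75%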;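 note: all wells also contain fluconazole at 8 µg/ml as a sub-toxic cotreatment; 0% = median of DMSO wells and 100% = median of geldanamycin control wells; wells of about 8 µL received 7.5 nL stock; the first replicate is given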
T cruzi repl: T. cruzi replication inhibition; T. cruzi beta-gal in NIH3T3, luminescence, 90 h; AID 1885; 300,000 tested, 1.4% active; inhibition, % (no concentration beside the values);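 active = mean inhibition across valid replicates above about 55%, limit read from the data; inconclusive = mean below that limit but half or more replicates reach it; inactive = mean below it, under half of replicates reach it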;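 note: signal also drops with host cell toxicity which is not excluded here; 0% = plate median of DMSO wells and 100% = zero luminescence signal; higher percent means less beta-gal luminescence so fewer parasites; stock transfer was 50 nL into about 50 µL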
Ecoli rRNA inh: inhibits bacterial ribosomal RNA function over humanized ribosomes. E. coli WT GFP vs humanized-ribosome RFP mutants, fluorescence, 24 h; hits give low values; DMSO median 0, no signal -100. GFP signal change (wild-type ribosome), % (no concentration beside the values). 350,000 tested, 1.6% active;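 active = significant combined selectivity score with lowered wild-type GFP, culture density cut under 30%, mutant RFP and density less affected; inactive = any of these conditions unmet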; note: one replicate is shown; some compounds called inactive have numbers as strong as hits
AF4-AF9 inh: MLL-AF4/AF9 protein interaction inhibition | P42568 | AlphaScreen, biotin-AF4 peptide binding to FLAG-AF9 | inhibition, % at 10 µM | 350,000 tested, 0.47% active | AID 651704;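 active = every replicate reaching a set inhibition limit, whatever the replicate mean, cut at about 25% in these data; inconclusive = mean inhibition reaches that limit but some replicates miss it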;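 note: 0% = plate neutral control median and 100% = total signal loss; the record names both 10 and 1 µM as test concentration; the first replicate is given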
Target sequence (P42568 whole entry, looked up): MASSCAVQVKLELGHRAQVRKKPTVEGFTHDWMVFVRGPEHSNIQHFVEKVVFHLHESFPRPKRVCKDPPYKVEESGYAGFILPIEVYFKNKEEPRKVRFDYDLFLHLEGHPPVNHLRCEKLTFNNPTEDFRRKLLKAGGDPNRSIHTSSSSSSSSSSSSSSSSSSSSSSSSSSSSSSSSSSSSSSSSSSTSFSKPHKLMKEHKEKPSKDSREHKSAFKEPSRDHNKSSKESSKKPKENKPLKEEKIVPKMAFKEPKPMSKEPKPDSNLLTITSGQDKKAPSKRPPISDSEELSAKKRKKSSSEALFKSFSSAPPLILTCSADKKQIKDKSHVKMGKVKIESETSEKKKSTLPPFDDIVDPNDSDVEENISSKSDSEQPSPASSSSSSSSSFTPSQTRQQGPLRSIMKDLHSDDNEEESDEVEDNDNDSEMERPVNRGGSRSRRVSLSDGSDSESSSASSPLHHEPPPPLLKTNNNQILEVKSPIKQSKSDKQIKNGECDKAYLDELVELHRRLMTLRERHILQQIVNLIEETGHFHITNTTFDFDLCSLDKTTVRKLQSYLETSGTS
FGF22 binding: binders of recombinant human FGF22 by thermal shift. calls only at 9.99 µM. SYPRO orange fluorescence; percent of sucrose octasulfate shift, DMSO zero. Q9HCT0. 340,000 tested, 1.5% active. AID 651658;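 active = melting point raised past a set limit in the mean and every replicate; inconclusive = no clear call; three in four hits are not shown here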
Target sequence (Q9HCT0 whole entry, looked up): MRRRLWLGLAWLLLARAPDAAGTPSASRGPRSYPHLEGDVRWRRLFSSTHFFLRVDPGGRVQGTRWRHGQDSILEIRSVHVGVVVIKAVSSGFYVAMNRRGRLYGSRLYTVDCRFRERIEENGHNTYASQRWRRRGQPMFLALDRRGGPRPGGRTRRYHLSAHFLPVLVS
Ecoli rRNA inh OD600: further read-out of Ecoli rRNA inh, marked with its call; OD600 change, %; measured here: OD600 growth;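 optical density of the mix in the first replicate; 0 = DMSO median and -100 = no signal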
Ecoli rRNA inh RFP: second read-out of Ecoli rRNA inh, no call of its own (marks repeat the call); RFP signal change, %; measured here: RFP humanized mutant strains;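 first replicate; 0 = DMSO median and -100 = no signal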
Numbers without * were called inactive; i = inactive; ? = inconclusive; . = no result given; & = joins results of further samples. This is a subset; the hit share may differ from the screen's.

SMILES	Beta cell apopt	ALR H2O2 inh	RanGTP-Imp inh	Calb FLC	T cruzi repl	Ecoli rRNA inh	Ecoli rRNA inh OD600	Ecoli rRNA inh RFP	AF4-AF9 inh	FGF22 binding
C=C(C)C1(O)OC(=O)C=C1OC (stereo not drawn)	-19.5	-62.4	?	16.4	-24.8	.	.	.	3.7	i
O=C(Cc1ccc([N+](=O)[O-])cc1)N/N=C/c1ccc([N+](=O)[O-])o1	97.2*	-60.7	3.3	5.8	107.2*	4.0	5.2	0.4	-0.3	i
O=[N+]([O-])c1ccc(NC(=S)N2CCc3ccccc3C2)cc1	-4.7	31.6	0.9	-59.9	-13.2	.	.	.	6.9	i
COc1ccc(CNC(=O)/C=C/c2cc([N+](=O)[O-])ccc2OC(F)F)cc1	0.6	-1.5	3.0	-16.8	-6.9	13.2	12.5	-10.8	-39.6	i
c1ccc(CCn2nnnc2C(c2cccnc2)N2CCN(c3nc4ccccc4s3)CC2)cc1 (stereo not drawn)	7.5	-7.0	-4.3	15.2	60.1*	.	.	.	.	.
C=C1CCC(O)C2(C)CCC3C(C)C(=O)OC3C12O (stereo not drawn)	-7.1	-0.6	1.1	5.7	-16.2	12.2	12.7	-0.5	0.5	i
O=C(Nc1cccnc1)c1ccc(CSc2ccccc2)cc1	-0.4	-0.3	-1.6	-2.0	-1.0	-2.6	1.9	-1.5	2.0	i
O=C(OCc1ccc(Cl)c(Cl)c1)c1ccc[nH]1	-0.9	-0.5	?	-19.3	6.6	-30.4	-49.8	-9.1	-0.5	i
O=C(CSc1nnc(-c2cccs2)n1Cc1ccco1)Nc1ccc2c(c1)OCO2	3.0	-0.4	1.2	-4.4	8.2	.	.	.	.	.
O=C(COC(=O)c1c(F)cccc1F)NCc1ccc2c(c1)OCO2	2.7	0.1	.	.	.	1.0	-0.3	-0.2	-5.8	i
c1ccc(-c2ccccc2OCCCN2CCCC2)cc1	-0.7	-7.8	3.2	-0.5	9.6	.	.	.	.	.
Cc1ccc(CS(=O)Cc2ccc(C(=O)NC3CCCC(C)C3C)o2)cc1 (stereo not drawn)	4.0	62.8	-0.2	-11.4	10.0	-8.1	-29.4	15.1	0.0	i
CCCCNS(=O)(=O)c1ccc2nc(-c3cccnc3)cc(C(=O)NCCCN(CC)CC)c2c1	-5.9	-24.5	-2.1	?	-8.9	.	.	.	.	.
O=C(CS(=O)(=O)Cc1ccccc1)Nc1ccc(S(=O)(=O)N2CCOCC2)cc1	-4.1	0.2	0.6	-4.8	0.8	6.0	7.4	-3.3	4.0	i
Cc1nc2sc(C(c3ccco3)N3CC(C)OC(C)C3)c(O)n2n1 (stereo not drawn)	-7.3	-0.2	?	-11.5	0.3	.	.	.	.	.
COc1cc(OC)cc(C(=O)N[C@H](C(=O)Nc2cc(F)ccc2C)C(C)C)c1	-3.3	2.6	-1.1	-1.2	5.1	15.6	7.8	1.3	-3.6	i
COC(=O)c1ccc(OC)c(CN2CCCN(Cc3ccc(F)cc3)S2(=O)=O)c1	1.3	18.4	2.6	3.7	56.9*	-3.7	0.5	-0.5	-1.9	i
Nc1nonc1-n1nnc(C(=O)N/N=C/c2cccnc2)c1-c1ccccc1	-8.8	-40.2	-4.1	-4.6	2.6	1.1	-2.9	2.8	-1.3	i
O=C(N/N=C/c1cccs1)c1cc(-c2ccc3ccccc3c2)n[nH]1	31.1	-0.9	-15.6	-5.9	-21.7	.	.	.	.	.
O=C(Nc1cccc(Cl)c1)Nc1ccccc1C(=O)O	2.5	10.6	2.7	-6.6	-19.6	-5.2	-8.0	-0.5	-12.2	i
CC(C)NC(=O)CN(c1cccc(Br)c1)S(C)(=O)=O	-1.1	-12.2	-0.3	-2.4	-10.0	.	.	.	.	.
COc1cccc(CC(=O)Nc2nc3ccccc3[nH]2)c1	4.3	-4.0	0.8	-2.2	-9.5	8.0	-0.9	3.1	0.1	i
CC(C)(NC(=O)N1CCCC1)c1cccc(C(C)(C)NC(=O)N2CCCC2)c1	-6.6	-10.9	1.7	-3.7	-4.4	.	.	.	.	.
C=CCOC(=O)C1=C[C@@H](c2coc3ccccc3c2=O)[C@H](CCCO)[C@@H](OCC)O1	0.2	.	-2.3	3.2	2.0	1.5	-5.9	1.2	-1.8	i
Cc1c(-c2ccccc2)n[nH]c1C(=O)N=Nc1c(O)[nH]c2ccccc12	6.6	5.4	2.3	-6.8	7.7	-5.9	-4.6	2.1	-1.9	i
SMILES	Beta cell apopt	ALR H2O2 inh	RanGTP-Imp inh	Calb FLC	T cruzi repl	Ecoli rRNA inh	Ecoli rRNA inh OD600	Ecoli rRNA inh RFP	AF4-AF9 inh	FGF22 binding
Cc1ccc(S(=O)(=O)N2CCC(C(=O)OCC(=O)N(C)CC(=O)Nc3ccc(F)cc3)CC2)cc1C	-2.8	-5.2	-2.5	2.4	-6.8	-13.4	-30.6	4.3	0.0	i
CCc1ccc(OCC(=O)NC(=S)Nc2ccc(C)cc2C)c(Br)c1	-8.3	-2.7	5.7	4.3	-5.0	.	.	.	.	.
CCCCNS(=O)(=O)c1ccc(OCC(=O)OC)cc1	-3.4	-0.6	25.5	-3.9	15.0	14.9	11.6	2.1	-35.9	i
C[C@H](CO)N1C[C@H](C)[C@@H](CN(C)S(=O)(=O)c2cn(C)cn2)Oc2ccc(NC(=O)Nc3ccc4c(c3)OCO4)cc2C1=O	-7.5	-22.6	.	.	.	-3.0&14.8	-1.8&21.4	-1.6&4.8	?	i
COC(=O)CC(=O)Cc1nc(N)nc(Nc2ccc(C)c(C)c2)n1	-6.2	1.3	-2.3	25.1	-13.2	.	.	.	.	.
Nc1c(O)cccc1C(=O)O	-2.0	69.8	-2.5	.	-11.8	-6.3	0.4	1.1	-5.8	i
COc1ccc(OC)c(Nc2nc(N)nc(CSc3nnc(-c4ccncc4)o3)n2)c1	0.2	-0.4	-1.6	1.6	1.6	.	.	.	.	.
Cc1ccc(-n2nc3c([n+]2[O-])CCc2nonc2-3)cc1	2.8	4.7	0.1	-3.1	-11.2	17.1	18.5	0.2	-1.2	i
C[C@H]1CN(C2CCCCC2)C(=O)[C@@H]1CC(=O)NCc1ccccc1	-16.9	-4.6	-0.1	-2.6	0.7	5.1	-4.8	14.7	0.1	i
Cc1cccc([N+](=O)[O-])c1NC(=O)CN(Cc1ccccc1)Cc1ccccc1	4.5	.	2.9	-8.0	12.2	.	.	.	2.7	i
CC(C)(C)c1ccc(/C=C/C(=O)N2CCOCC2)cc1	8.5	-0.6	2.9	-2.0	-1.9	0.5	-0.8	-3.4	-20.7	i
COc1ccc(N2C(=O)c3ccccc3NC2(C)C)cc1	1.4	-1.0	-3.0	-6.7	-2.3	15.7	14.6	0.6	0.6	i
CCOc1ccc2c(c1)c(=O)c(S(=O)(=O)c1ccc(C)cc1)cn2CC	-2.1	-8.6	1.8	-4.2	8.3	-23.1	-18.8	7.4	0.9	i
O=C(C[C@H]1C/C=C\C[C@H](NC(=O)OCC2c3ccccc3-c3ccccc32)C(=O)O[C@@H](c2ccccc2)CNC1=O)NCCO	4.4	-0.5	.	.	.	6.5	8.7	2.3	2.2	i
CCOC(=O)c1c(-c2ccccc2)[nH]c2ccc(O)cc12	6.0	98.0*	1.9	5.1	8.3	.	.	.	.	.
COc1ccc(C(CNC(=O)COc2ccc(F)cc2Cl)N2CCCCC2)cc1 (stereo not drawn)	-1.3	-8.2	.	.	.	7.1	0.3	-1.1	-4.9	i
Cc1ccc(CN2CCC(n3nccc3NC(=O)c3ccccc3C)CC2)o1	-2.8	4.3	?	26.5	-9.7	17.6	13.8	4.4	3.3	i
Nc1nc(NCc2ccco2)nc(Nc2ccc(F)cc2)c1[N+](=O)[O-]	1.4	0.0	-3.3	0.2	-9.3	6.9	10.2	0.1	1.2	i
O=S(=O)(NCC(c1ccco1)N1CCN(c2ccccc2F)CC1)c1ccc2c(c1)OCCO2 (stereo not drawn)	-6.3	-1.2	3.4	-32.5	-12.1	.	.	.	.	.
C#CCn1c2ccccc2c2nc3ccccc3nc21	3.2	-13.3	14.3	0.9	-5.2	-5.2	-0.6	2.2	0.2	i
COc1ccccc1-c1nc2ccccc2c(=O)n1NC(=O)c1cccs1	-9.9	.	3.5	10.3	4.8	.	.	.	.	.
C=CCNC(=S)N/N=C/c1ccc(C)s1	4.3	-2.3	3.7	-4.4	50.5	1.3	-0.2	-3.7	5.4	i
CC(Oc1ccc2c3c(c(=O)oc2c1)CCCC3)C(=O)NCc1ccncc1 (stereo not drawn)	-0.3	-2.2	3.6	9.3	-4.8	-6.2	-6.3	-1.8	-1.2	i
CCOc1ccc(NC(=O)Nc2ccc(N(C)C(C)=O)cc2)cc1	4.2	-16.5	-1.6	4.5	11.2	.	.	.	.	.
CCN(C(=O)COC(=O)c1cc(OC)c(OC)cc1[N+](=O)[O-])C1CCS(=O)(=O)C1 (stereo not drawn)	-5.7	-17.2	2.5	12.6	7.4	-17.3	14.6	6.8	0.3	i

Taken from above:
For Ecoli rRNA inh, C[C@H](CO)N1C[C@H](C)[C@@H](CN(C)S(=O)(=O)c2cn(C)cn2)Oc2ccc(NC(=O)Nc3ccc4c(c3)OCO4)cc2C1=O is entered as -3.0&14.8
For Beta cell apopt, COc1ccc(OC)c(Nc2nc(N)nc(CSc3nnc(-c4ccncc4)o3)n2)c1 is entered as 0.2

(listing goes on)
SMILES	Beta cell apopt	ALR H2O2 inh	RanGTP-Imp inh	Calb FLC	T cruzi repl	Ecoli rRNA inh	Ecoli rRNA inh OD600	Ecoli rRNA inh RFP	AF4-AF9 inh	FGF22 binding
O=C(CSc1ccc(-c2cccnc2)nn1)c1ccc([N+](=O)[O-])cc1	-8.0	?	2.3	1.1	-9.4	10.2	6.0	-2.3	2.6	i
Clc1ccc(-c2csc(Nc3cccnc3)n2)cc1	-16.2	-1.7	-1.5	-8.0	58.5*	4.0	4.7	-1.4	-6.2	i
CCCCn1nc2cc(C(=O)N[C@H](C)C3CCCCC3)ccc2c1OCC	-2.3	6.7	0.8	-10.5	1.9	1.1	-2.9	1.4	-0.5	i
O=C(CCc1ccccc1)Nc1ncc([N+](=O)[O-])s1	-1.4	-17.2	1.3	0.7	86.1*	-42.5*	-20.7*	2.7*	2.7	i
O=C(COC(=O)c1cc2ccccc2cc1O)Nc1cccnc1Cl	-3.2	-32.4	-4.3	9.2	-20.1	14.4	-4.7	-1.5	3.3	i
COC(=O)c1ccc(C)c(NC(=O)C2COc3ccccc3O2)c1 (stereo not drawn)	-5.1	0.0	-0.2	-3.1	19.3	.	.	.	.	.
O=C1CSC(c2ccc([N+](=O)[O-])cc2)N1CCN1CCCCC1 (stereo not drawn)	-1.7	-5.3	-1.4	-7.2	13.7	13.2	8.8	-5.7	-0.3	i
CCOC(=O)c1c(C)nc(C(Cl)(Cl)Cl)nc1N	8.3	.	2.6	5.1	-6.7	-36.6*	-2.4*	-1.0*	-1.9	i
CCC(=O)N1CCc2cc(Br)cc(S(=O)(=O)NCC3CCCO3)c21 (stereo not drawn)	.	-2.2	1.7	-3.6	6.6	.	.	.	.	.
Fc1cc(Cl)ccc1NC(=S)NCCN1CCOCC1	3.2	.	-0.8	8.1	-8.8	17.4	2.8	1.4	0.4	i
